Vaccinia stage = Vaccinia orthopox stage-specific inhibition; actives 0.01% (n = 89,000); AID 1053133; Vaccinia-infected cells, mCherry/Venus stage reporter fluorescence; hits give low values; some inactives read as strong as hits; activity change (mCherry), % (concentration not given with the values);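 active = mCherry past -33% and 40 or more points under the early reporter, replicates agreeing; inconclusive = past -33% without that gap or agreement; tested in A549 cells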;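 also: scaled between vehicle wells and reference inhibitor wells; 23 nL library stock went into each well; one replicate is shown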
Vaccinia stage Venus = recorded beside Vaccinia stage, whose call it bears; activity change (Venus), %; measured here: Venus reporter, other viral stage;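 negative = less Venus signal; first of two replicates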
Active calls of the source: *; ? = inconclusive; nt = not tested or not shown; & = joins results of further samples. Only part of the results is shown; rates above refer to the full screens.

SMILES	Vaccinia stage	Vaccinia stage Venus
C[C@@H]1CCCCO[C@H](CN(C)Cc2ccc3c(c2)OCO3)[C@H](C)CN([C@H](C)CO)C(=O)c2cc(N(C)C)ccc2O1	-21.9&12.5	-13.5&1.9
C[C@@H]1CN([C@@H](C)CO)C(=O)c2cccc(NC(=O)CCCCCC(=O)Nc3ccccc3N)c2O[C@@H]1CN(C)C(=O)Nc1ccc(F)cc1	-2.8	-7.9
C[C@@H]1CN([C@@H](C)CO)C(=O)Cc2cc(NC(=O)CCC(F)(F)F)ccc2O[C@@H]1CN(C)Cc1ccccc1	-10.0	-7.1
C/C=C/c1ccccc1[C@H]1[C@@H](C#N)N(C(=O)Cc2ccccn2)[C@@H]1CO	-21.2	-12.5
C[C@@H]1CCCCO[C@@H](CN(C)Cc2ccc(C(=O)O)cc2)[C@H](C)CN([C@H](C)CO)C(=O)c2cc(NS(=O)(=O)c3cccs3)ccc2O1	10.7	9.2
COc1ccc(S(=O)(=O)Nc2ccc3c(c2)CC(=O)N([C@H](C)CO)C[C@@H](C)[C@H](CN(C)C(=O)Nc2ccc(C(F)(F)F)cc2)O3)cc1	-12.0	9.2
C[C@@H]1CN([C@@H](C)CO)C(=O)c2c(c3ccccc3n2C)-c2ccccc2CO[C@@H]1CN(C)C(=O)C1CC1	-11.3	-21.4
CO[C@H]1CN(C)C(=O)c2ccc(NC(=O)C3CCC3)cc2OC[C@@H](C)N(Cc2nccs2)C[C@H]1C	-1.2	4.3
C[C@H](CO)N1C[C@H](C)[C@@H](CN(C)CC2CCCCC2)Oc2ccc(NS(=O)(=O)c3ccccc3)cc2C1=O	3.1	5.7
COCC#Cc1cnc2c(c1)C(=O)N([C@@H](C)CO)C[C@@H](C)[C@@H](CN(C)C(=O)CN1CCOCC1)O2	13.0	17.0
COc1cccc(S(=O)(=O)N2CCCCN3[C@H](CO)[C@H](c4ccc(C#CC(C)C)cc4)[C@H]3C2)c1	-20.3	-34.7
C[C@H](CO)N1C[C@H](C)[C@@H](CN(C)Cc2ccc(C(=O)Nc3ccccc3N)cc2)Oc2ccc(NC(=O)C3CC3)cc2CC1=O	7.7	10.7
C[C@H]1CCCCO[C@H](CN(C)C(=O)Nc2cccc3ccccc23)[C@@H](C)CN([C@@H](C)CO)C(=O)c2cc(NC(=O)Nc3cccc4ccccc34)ccc2O1	35.0	19.4
C[C@H]1CN([C@@H](C)CO)C(=O)c2cc(-c3cccc(F)c3)cnc2O[C@@H]1CN(C)S(C)(=O)=O	18.5	9.5
CO[C@@H]1CN(C)C(=O)c2ccc(NC(=O)C3CC3)cc2OC[C@@H](C)N(C(=O)c2ccccc2)C[C@@H]1C	13.2	14.0

Quoted at random: 5 records from the list.
SMILES	Vaccinia stage	Vaccinia stage Venus
COCC#Cc1cnc2c(c1)C(=O)N([C@@H](C)CO)C[C@@H](C)[C@@H](CN(C)C(=O)CN1CCOCC1)O2	13.0	17.0
C[C@H]1CCCCO[C@H](CN(C)C(=O)Nc2cccc3ccccc23)[C@@H](C)CN([C@@H](C)CO)C(=O)c2cc(NC(=O)Nc3cccc4ccccc34)ccc2O1	35.0	19.4
CO[C@@H]1CN(C)C(=O)c2ccc(NC(=O)C3CC3)cc2OC[C@@H](C)N(C(=O)c2ccccc2)C[C@@H]1C	13.2	14.0
CO[C@H]1CN(C)C(=O)c2ccc(NC(=O)C3CCC3)cc2OC[C@@H](C)N(Cc2nccs2)C[C@H]1C	-1.2	4.3
C/C=C/c1ccccc1[C@H]1[C@@H](C#N)N(C(=O)Cc2ccccn2)[C@@H]1CO	-21.2	-12.5

New compounds follow.
SMILES	Vaccinia stage	Vaccinia stage Venus
COCC(=O)N(C)C[C@H]1Oc2ncc(C#CC(C)(C)O)cc2C(=O)N([C@H](C)CO)C[C@@H]1C	14.4	-1.2
CN(C)C(=O)c1ccc(-c2ccccc2[C@H]2[C@@H](CO)N(C(=O)C3CCC3)[C@H]2C#N)cc1	-9.1	-1.3
CCNC(=O)C[C@H]1CC[C@@H]2[C@H](COc3ccc(NC(=O)c4cc(C)on4)cc3C(=O)N2C)O1	9.3	4.8
COc1ccc(S(=O)(=O)N(C)C[C@@H]2Oc3ccc(NS(C)(=O)=O)cc3CC(=O)N([C@@H](C)CO)C[C@@H]2C)cc1	-8.9	-8.5
C[C@H]1CN([C@@H](C)CO)C(=O)CCCn2cc(nn2)CO[C@H]1CN(C)Cc1ccc(Oc2ccccc2)cc1	-15.3	-6.2
CCNC(=O)C[C@H]1CC[C@@H]2[C@H](COC[C@@H](O)CN2C(=O)CC)O1	17.6	13.7
C[C@@H]1CCCCO[C@H](CN(C)Cc2ccc(C(=O)O)cc2)[C@@H](C)CN([C@@H](C)CO)C(=O)c2cc(NC(=O)C3CCCCC3)ccc2O1	8.9	4.4
O=C(C[C@@H]1CC[C@H]2[C@@H](COC[C@H](O)CN2S(=O)(=O)c2cccc(Cl)c2)O1)Nc1ccccc1	-12.7	-4.8
C#CCNC(=O)C1=C[C@@H](C2CCCCC2)C[C@@H](OCCCCO)O1	1.7	-1.5
C[C@H](NC(=O)[C@H]1[C@H](CO)[C@H]2Cn3c(ccc(-c4cccnc4)c3=O)[C@H]2N1C)c1ccccc1	6.9	-0.7
C[C@H]1CN([C@@H](C)CO)C(=O)c2cc(C#CCN(C)C)cnc2O[C@@H]1CN(C)C(=O)c1ccc2c(c1)OCO2	9.2	3.7
Cc1ccc(S(=O)(=O)N(C)C[C@H]2Oc3ccc(NC(=O)NC(C)C)cc3C(=O)N([C@@H](C)CO)C[C@H]2C)cc1	11.0	-1.5
C[C@@H]1CN([C@@H](C)CO)C(=O)c2cc(NS(=O)(=O)c3ccccc3)ccc2O[C@@H](C)CCCCO[C@H]1CN(C)C(=O)Cc1ccccc1	-22.9	-19.0
Cc1ccc(S(=O)(=O)N[C@H]2C=C[C@H](CC(=O)NCc3ccc(Cl)c(Cl)c3)O[C@H]2CO)cc1	?	nt
O=C(C1CC1)N1[C@H](CO)[C@@H](c2ccccc2)C12CN(CCC(F)(F)F)C2	-2.6	0.5
CCS(=O)(=O)Nc1ccc2c(c1)C(=O)N(C)C[C@@H](OC)[C@@H](C)CN(C)[C@@H](C)CO2	8.4	7.5
COc1ccccc1-c1ccc2c(c1)O[C@@H](CN(C)C(=O)c1cccnc1)[C@H](C)CN([C@@H](C)CO)S2(=O)=O	-5.6	-13.3
COC(=O)[C@@H]1[C@@H](CO)[C@@H]2Cn3c(ccc(C4=CCCCC4)c3=O)[C@H]1N2Cc1ccccn1	2.8	8.6
CN(C)C(=O)C[C@H]1CC[C@@H]2[C@@H](COc3ccc(NC(=O)c4cnccn4)cc3C(=O)N2C)O1	0.3	-0.1
COc1cccc(S(=O)(=O)N(C)C[C@H]2Oc3cc(C4=CCCC4)ccc3S(=O)(=O)N([C@@H](C)CO)C[C@H]2C)c1	-32.0	-28.9
C[C@H]1CN([C@@H](C)CO)C(=O)c2cccc(NS(=O)(=O)c3ccccc3)c2O[C@@H]1CN(C)Cc1ccc2c(c1)OCO2	-0.4	4.7
O=C(C1CC1)N1[C@H](CO)[C@@H]2c3ccccc3NC[C@@H]21	-2.1	2.8
O=C([C@H]1[C@H](CO)[C@H]2Cn3c(cccc3=O)[C@@H]1N2C(=O)c1ccc(F)cc1)N1CCCCC1	2.0	-6.0
C[C@@H]1CN([C@H](C)CO)S(=O)(=O)c2ccc(C#CC3CC3)cc2O[C@H]1CN(C)Cc1ccccn1	?	nt
C[C@@H]1CN([C@@H](C)CO)C(=O)c2cc(-c3cccc(C#N)c3)cnc2O[C@H]1CN(C)C(=O)C1CCCCC1	-1.8	1.1
C[C@@H]1CN([C@H](C)CO)C(=O)c2cc(Br)cnc2O[C@H]1CN(C)C(=O)NC1CCCC1	8.3	5.6
C[C@@H]1CN([C@@H](C)CO)C(=O)c2cc(NC(=O)CCCN(C)C)ccc2O[C@H]1CN(C)C(=O)Nc1ccc2c(c1)OCO2	35.6	21.8
O=C([C@@H]1[C@@H](CO)[C@@H]2Cn3c(cccc3=O)[C@H]1N2CC1CCCC1)N1CCOCC1	10.2	2.7
COc1ccc(NC(=O)Nc2ccc3c(c2)[C@H]2C[C@@H](CC(=O)NC4CCCC4)O[C@@H](CO)[C@H]2O3)cc1	10.6	10.6
COc1ccc(-c2ccc([C@@H]3[C@@H](CO)N(C(=O)c4cccnc4)[C@H]3C#N)cc2)cc1	6.5	-1.0
COc1ccc(-c2cnc3c(c2)C(=O)N([C@H](C)CO)C[C@H](C)[C@H](CN(C)C(=O)NC(C)C)O3)cc1	9.7	3.2
C[C@H](CO)N1C[C@H](C)[C@H](CN(C)S(=O)(=O)c2cccs2)Oc2ccc(NC(=O)Nc3cccc4ccccc34)cc2C1=O	29.0	23.6
CNC[C@H]1Oc2ncc(-c3ccc(C)cc3)cc2C(=O)N([C@H](C)CO)C[C@H]1C	-21.6	-15.0
COc1ccc(CN(C)C[C@@H]2OCCCC[C@H](C)Oc3ccc(NC(=O)Nc4ccc(OC)cc4)cc3C(=O)N([C@@H](C)CO)C[C@H]2C)cc1	-31.9	-33.2
CC(C)NC(=O)N(C)C[C@@H]1OCCCC[C@H](C)Oc2ccc(NS(=O)(=O)c3ccc(Cl)cc3)cc2C(=O)N([C@@H](C)CO)C[C@H]1C	7.2	8.4
Cc1noc(C)c1S(=O)(=O)Nc1ccc2c(c1)C(=O)N([C@@H](C)CO)C[C@@H](C)[C@H](CN(C)Cc1ccc(C(F)(F)F)cc1)O2	-9.6	-7.1
COc1ccc(S(=O)(=O)N2CCN(Cc3ccc(OCCO)cc3)CC2)cc1	3.7	0.9
COc1ccccc1C#Cc1ccc2c(c1)[C@@H]1[C@@H](CCN1C(=O)c1ccccc1)[C@H](CO)N2	-0.7	3.1
COc1ccc(CN(C)C[C@H]2Oc3ccc(NC(=O)Nc4ccc(F)cc4)cc3C(=O)N([C@H](C)CO)C[C@H]2C)cc1	-22.4	-13.8
CCN1[C@H](C(=O)NCCc2cn(C)cn2)[C@@H](CO)[C@@H]2Cn3c(ccc(-c4cccnc4)c3=O)[C@@H]21	-0.3	8.2
O=C(NC[C@H]1[C@H](c2ccccc2)[C@@H](CO)N1Cc1ccccn1)C1CC1	3.3	5.2
C[C@H](NC(=O)C[C@@H]1CC[C@H]2[C@@H](COC[C@@H](O)CN2Cc2cc(F)ccc2F)O1)c1ccccc1	-7.0	-1.2
C[C@H](CO)N1C[C@H](C)[C@H](CN(C)C(=O)NC2CCCCC2)Oc2c(NC(=O)c3ccc(-c4nccs4)cc3)cccc2C1=O	7.1	4.8
COc1ccc(-c2cnc3c(c2)C(=O)N([C@@H](C)CO)C[C@H](C)[C@H](CN(C)C(=O)C2CCCCC2)O3)cc1	6.7	-1.4
COC(=O)[C@@H]1[C@@H](CO)[C@@H]2Cn3c(ccc(-c4ccccc4F)c3=O)[C@H]1N2C(=O)C1CCC1	11.9	4.7
C[C@H]1CN([C@@H](C)CO)C(=O)c2cc(-c3ccncc3)cnc2O[C@@H]1CN(C)C(=O)Nc1ccc2c(c1)OCO2	4.1	-9.2
C[C@H]1CN([C@@H](C)CO)C(=O)Cc2cc(NC(=O)CCCCCC(=O)Nc3ccccc3N)ccc2O[C@H]1CN(C)C(=O)NC1CCCCC1	1.9	6.4
O=C(C1CC1)N1CC(=O)N2[C@H](C1)[C@H](c1ccc(Br)cc1)[C@@H]2CO	-0.8	4.0
C[C@@H]1CCCCO[C@H](CN(C)S(=O)(=O)c2ccc(Cl)cc2)[C@H](C)CN([C@H](C)CO)C(=O)c2cc(N(C)C)ccc2O1	-16.8	-4.0
C[C@H](CO)N1C[C@H](C)[C@H](CN(C)C(=O)c2cccc(F)c2)Oc2cc(-c3cncnc3)ccc2S1(=O)=O	15.6	13.1
CC(C)CC#Cc1cnc2c(c1)C(=O)N([C@H](C)CO)C[C@@H](C)[C@@H](CN(C)Cc1ccccc1F)O2	-0.2	-3.4
CN(C)C(=O)c1ccc(-c2ccc3c(c2)[C@H]2[C@H](CCN2C(=O)C2CC2)[C@@H](CO)N3C)cc1	-1.1	-8.5
CN(C)C(=O)[C@@H]1[C@@H](CO)[C@@H]2Cn3c(ccc(-c4ccccc4F)c3=O)[C@H]1N2C(=O)c1ccncc1	19.0	15.0
C[C@@H]1CN([C@@H](C)CO)C(=O)c2cccc(NS(=O)(=O)c3ccccc3)c2O[C@@H]1CN(C)C(=O)Nc1cccc2ccccc12	12.2	11.6
COc1ccccc1C#Cc1cnc2c(c1)C(=O)N([C@H](C)CO)C[C@@H](C)[C@H](CN(C)S(=O)(=O)c1cn(C)cn1)O2	-6.0	-2.7
CCCN1C[C@H](C)[C@H](OC)CN(C)C(=O)c2ccc(NS(=O)(=O)c3cn(C)cn3)cc2OC[C@@H]1C	22.5	12.6
CNC(=O)C[C@H]1CC[C@H]2[C@@H](COC[C@@H](O)CN2S(=O)(=O)c2ccc(Oc3ccccc3)cc2)O1	-5.5	0.7
Cc1noc(C)c1NC(=O)Nc1ccc2c(c1)CC(=O)N([C@@H](C)CO)C[C@@H](C)[C@H](CN(C)Cc1ccc(C(=O)Nc3ccccc3N)cc1)O2	15.3	9.6
CCS(=O)(=O)N1CCCCN2[C@H](C1)[C@H](c1ccc(-c3ccccc3F)cc1)[C@@H]2CO	10.8	15.7
O=C(c1cccc(F)c1)N1CC2(C1)[C@H](c1ccccc1)[C@@H](CO)N2C(=O)C1CCC1	6.0	0.1
New compounds follow
SMILES	Vaccinia stage	Vaccinia stage Venus
COc1ccc(C#Cc2ccc3c(c2)[C@@H]2[C@@H](CCN2S(=O)(=O)c2ccccc2C)[C@@H](CO)N3)cc1	15.9	13.1
CN(C)CC#Cc1ccc([C@@H]2[C@H](CO)N3CCCCN(C(=O)Nc4ccccc4F)C[C@@H]23)cc1	3.5	3.9
C[C@H](CO)N1C[C@H](C)[C@@H](CN(C)C(=O)Nc2ccc3c(c2)OCO3)Oc2cc(C3=CCCC3)ccc2S1(=O)=O	-13.2	-14.1
C[C@H]1CN([C@@H](C)CO)C(=O)c2cc(NC(=O)c3ccncc3)ccc2O[C@@H]1CN(C)Cc1ccc(-c2ccccc2)cc1	-11.6	-16.0
